# Screening data (PubChem BioAssay)
# Vif-A3F inh – blocks the Vif interaction with APOBEC3F; HeLa A3F-eYFP + Vif (tagged APOBEC3F with the HIV-1 protein that degrades it), YFP fluorescence increase; Potency, µM (highest dose often 46.1 µM), for the others: at the highest dose activity, negative = active; hit rate 0.2% among 390,000; also: potency is read from the fitted curve at half-maximal effect; % of control where 0% means no effect; nearly all actives have a fitted effect of over 65% in size
#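 HeLa cells stably expressing Vif plus C-terminally eYFP-tagged A3F were seeded, incubated overnight at 37 deg C, dosed with compound, incubated overnight again at 37 deg C. Yellow fluorescence (Ex 488/Em 500-530) reported blocked Vif-mediated A3F-eYFP degradation.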
# LDHA inh – blocks human lactate dehydrogenase A; P00338; purified LDHA, NADH/diaphorase-resazurin fluorescence; active compounds read low; activity change, % (values are at about 110 or 230 µM); hit rate 0.15% among 480,000; AID 1347041; in the data active = activity change below about -30%; inconclusive = mostly about -25% to -30%;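 also: plate controls were DMSO wells for no effect and wells without enzyme for full effect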
#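 Human LDH5 at 2 nM final in Tris HCl pH 7.4 with 0.06 mM NADH and 0.2 mM pyruvate, reacted 5 minutes at room temperature. Remaining NADH coupled via diaphorase/resazurin; resorufin fluorescence read at 0 and 20 minutes, normalized to enzyme-free and DMSO wells.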
# Vif-A3G inh – blocks the Vif interaction with human APOBEC3G; AID 602310; HeLa A3G-eYFP + Vif (tagged APOBEC3G with the HIV-1 protein that degrades it), YFP fluorescence, overnight; Potency, µM (series often up to 46.1 µM), for the others: at the highest dose activity, negative = active, usual class: inhibitors; hit rate 0.076% among 410,000; Q9HC16;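 also: potency is read from the fitted curve at half-maximal effect; % is scaled to controls: 0 for no effect and ±100 for the full control effect; nearly all actives have a fitted effect of over 60% in size; hits raise eYFP signal because A3G escapes Vif-driven loss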
# Target sequence (Q9HC16 whole entry, looked up): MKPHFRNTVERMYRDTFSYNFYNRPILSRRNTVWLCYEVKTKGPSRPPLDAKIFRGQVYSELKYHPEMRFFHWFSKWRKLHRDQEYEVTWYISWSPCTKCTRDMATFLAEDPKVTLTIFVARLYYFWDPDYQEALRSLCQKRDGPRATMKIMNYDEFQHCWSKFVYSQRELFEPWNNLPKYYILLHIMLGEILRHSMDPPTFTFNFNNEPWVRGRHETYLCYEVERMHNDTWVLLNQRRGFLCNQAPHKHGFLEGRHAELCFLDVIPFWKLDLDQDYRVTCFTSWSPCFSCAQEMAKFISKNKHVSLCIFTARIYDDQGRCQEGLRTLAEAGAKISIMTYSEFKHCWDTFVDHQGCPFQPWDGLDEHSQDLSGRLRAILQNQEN
#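 Read-out is eYFP fluorescence (Ex 488/Em 500-530) from Vif-expressing HeLa A3G-eYFP cells; more signal means A3G escaped Vif-mediated degradation. Cells plated overnight, compound pinned in, incubated overnight at 37 deg C.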
# mIDH1 inhibitor – inhibitors of human mutant IDH1 R132H. O75874. IDH1-R132H enzyme, NADPH consumption, diaphorase/resazurin fluorescence. Potency, µM (highest dose often 76.6 µM), inactives show at the top dose activity change, negative = inhibition, usual class: inhibitors. hit rate 0.093% among 390,000; also: potency is read from the fitted curve at half-maximal effect; % is scaled to controls: 0 for no effect and ±100 for the full control effect; nearly all actives have a fitted effect of over 65% in size
#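 IDH1-R132H (0.5 ug/mL dispensed) in pH 7.5 Tris buffer was preincubated 30 min with compound, then given a substrate mix of 0.016 mM NADPH and 2 mM alpha-KG for 80 min at room temperature; remaining NADPH was read by diaphorase/resazurin fluorescence.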
# Glioma ERSR ind – induces the endoplasmic reticulum stress response in human glioma cells | hit rate 0.02% among 420,000 | Potency, µM, for the others: at the top dose activation, usual class: activators | U87-MG GRP78 promoter luciferase reporter, 16 h; also: potency is read from the fitted curve at half-maximal effect; series mostly up to about 76 µM; % of control where 0% means no effect; nearly all actives have a fitted effect of over 35% in size
#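 ERSR induction read as luciferase luminescence (Bright-Glo, 10 min at room temperature) in stably transfected human U87-MG glioma cells exposed to compounds for 16 h, using GRP78 as sensor.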
# RGS4 inh – blocks human RGS4-accelerated GTP hydrolysis | Transcreener GDP fluorescence polarization, RGS4-accelerated GTP hydrolysis | hit rate 0.039% among 390,000 | P49798 | Potency, µM (doses to about 114 µM), for inactives: at the top dose activity change, negative = inhibition, hits mostly inhibitors; also: potency is read from the fitted curve at half-maximal effect; % is scaled to controls: 0 for no effect and ±100 for the full control effect; nearly all actives have a fitted effect of over 75% in size; some results filed as inactive show a strong effect at the top dose
# Target sequence (P49798 whole entry, looked up): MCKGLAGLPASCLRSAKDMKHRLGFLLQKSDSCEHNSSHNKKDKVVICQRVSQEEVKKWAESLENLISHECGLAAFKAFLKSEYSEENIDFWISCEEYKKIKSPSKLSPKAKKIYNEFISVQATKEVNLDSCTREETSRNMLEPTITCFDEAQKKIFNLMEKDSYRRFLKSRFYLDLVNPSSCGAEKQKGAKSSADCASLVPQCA
#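 MLSMR compounds (23 nl, pin-transferred) preincubated 10 min at room temperature with a 500nM (2x) first reagent, then RGS4 at 900nM (2x) plus Transcreener GDP mix added; fluorescence polarization (620/688 nm) read before and after 90 min at 30 °C.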
# TrxR1 substrate – rat thioredoxin reductase 1 substrate activity. Potency, µM (highest dose often 114 µM), for the others: at the highest dose activity change, negative = substrate turnover. hit rate 0.01% among 390,000. purified TrxR1 substrate turnover, NADPH consumption readout; also: potency is read from the fitted curve at half-maximal effect; % is scaled to controls: 0 for no effect and ±100 for the full control effect; nearly all actives have a fitted effect of over 50% in size
#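 Rat TrxR1, dispensed at 90 nM, was prereduced with 400 uM NADPH (final) for 5 min at ~22 deg C, then incubated with compound 15 min before 400 uM selenite. A first-read NADPH fluorescence drop versus no-compound background flagged substrates.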
# rTrxR1 inhibitor – inhibitors of rat thioredoxin reductase 1. recombinant rTrxR1, NADPH fluorescence consumption, selenite substrate. AID 588453. hit rate 1% among 390,000. Potency, µM (doses to about 114 µM), without a hit: at the highest dose activity change, negative = inhibition, usual class: inhibitors; also: potency is read from the fitted curve at half-maximal effect; % is scaled to controls: 0 for no effect and ±100 for the full control effect; nearly all actives have a fitted effect of over 65% in size
#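 Rat TrxR1 (90 nM in the dispensed reagent) was pre-reduced with 400 uM NADPH for 5 min at room temperature, then incubated with compound for 15 min. After 400 uM selenite was added, NADPH fluorescence (Ex 340/Em 450 nm) was followed for 8 min.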
# Active calls of the source: *; ? = inconclusive; / = not tested or not shown; & = joins results of further samples; [ ] = another dose, or the depositor's remark. Unless noted, calls follow the shape of the dose curve; as a rule, active = well fitted curve in the direction sought with a large enough effect; inconclusive = small, poorly fitted or top-dose-only effect, or another doubt; inactive = no such curve, though single readings can be large; an effect the other way counts as inactive or inconclusive.
mol	Vif-A3F inh	LDHA inh	Vif-A3G inh	mIDH1 inhibitor	Glioma ERSR ind	RGS4 inh	TrxR1 substrate	rTrxR1 inhibitor
CCOC(=O)c1ccc(-c2ccc(/C=C(\C#N)C(=O)Nc3c(C)cccc3Cl)o2)cc1	?	-1	5%	-2%	-3%	-22%	2%	-9%
Cc1cccc(-n2c(SCC(N)=O)nnc2-c2ccco2)c1	4%	-10	1%	7%	-5%	23%	6%	28%
CC1=C(C(N)=O)C(c2cccc(OCc3ccccc3)c2)n2nnnc2N1 (stereo not given)	-7%	-7	-10%	6%	-1%	14%	8%	14%
COc1cccc(/C=C/C(=O)OCC(=O)NCc2ccc(Cl)cc2)c1	?	-14	7%	9%	0%	-25%	18%	21%[57.1 µM]
CC(C)(C)OC(=O)[C@H](Cc1ccccc1)NC(=O)c1nc[nH]c1C(=O)N1CCNCC1	-8%	1	-2%	13%	-3%	-21%	1%	0%
COC(=O)CCC(=O)OC1(C)C(=O)C=C2C=C(C3CC3)N(CCCOC(C)C)C=C2C1=O (stereo not given)	-4%	19	-16%	17%	-3%	-43%	-22%	?
COc1ccc(/C=C2/Sc3ccc(C(=O)N4CCOCC4)cc3NC2=O)cc1OC	3%	0	3%	7%	3%	-28%[56.9 µM]	-6%[57.1 µM]	11%[57.1 µM]
Cc1ccc(S(=O)(=O)N(C)C)cc1N	2%	-7	2%	6%	-4%	-6%	3%	8%
CCC(C)c1ccccc1OCCCNC1CCCC1 (stereo not given)	2%	-7	2%	12%	-5%	-19%	-3%	20%
CC(=O)c1ccc(NC(=O)c2cnsn2)cc1	-28%	-1	0%	6%	-8%	12%	-16%[57.1 µM]	19%[57.1 µM]
CS(=O)(=O)N1CC(C(=O)NC2CC2)Oc2ccc(Cl)cc21 (stereo not given)	3%	4	-1%	3%	-5%	10%	-10%	-2%
Cc1ccc(NC(=O)C(C)Sc2nnc(C)n2CC2CCCO2)cc1 (stereo not given)	4%	-18	-4%	0%	-1%	21%	4%	18%
Oc1ccc(C(c2nnnn2C2CCCCC2)N2CCOCC2)cc1 (stereo not given)	6%	-6	-1%	6%	-4%	8%	5%[57.1 µM]	-15%[57.1 µM]
CC(C)Cn1cc(NC(=O)N2CCN(c3cccc(C(F)(F)F)c3)CC2)c2ccccc2c1=O	2%	8	-20%	-11%	-3%	-15%	1%	-3%
Cc1nc(-c2ccc(NC(=O)C3CCCCC3)cc2)cs1	1%	-3	-1%	5%	-3%	-18%	-9%	-6%
Cn1c(=O)c2c(nc(CN3CCc4ccccc4C3)n2Cc2ccccc2)n(C)c1=O	-14%	0&9	-3%	9%	-2%	-9%	-11%	-8%
Cc1ccc(NC(=O)COC(=O)c2ccc(C)c(S(=O)(=O)N3CCOCC3)c2)cc1	-8%	1	0%	3%	-1%	-3%	-4%	11%
O=C(NCCNc1ccc(Cl)cc1[N+](=O)[O-])c1ccccc1F	-4%	-2	-2%	-5%	-2%	-31%	-9%	15%
CN(Cc1ccccc1)c1nnc(NC(=O)Nc2cccc(Br)c2)s1	6%	-7	-4%	19%	-1%	20%	-13%	0%
Cc1cccc(C)c1OCC(O)CN1CCN(c2ccccn2)CC1 (stereo not given)	13%	1	0%	0%	-4%	-15%	-5%	1%[57.1 µM]
COc1cc(C)c(S(=O)(=O)NCc2ccc3c(c2)OCO3)cc1C	0%	1	3%	6%	0%	-17%	4%[57.1 µM]	20%[57.1 µM]
COc1ccc(OC)c(/C=C/C(=O)OCC(=O)N2CCN(S(=O)(=O)c3ccc(C)cc3C)CC2)c1	6%	-3	-4%	8%	-1%	-24%	205%[activator]	25%
O=C(N/N=C1\CCCc2ccccc21)C(O)c1ccccc1 (stereo not given)	-8%	1	0%	2%	-4%	-2%	8%	13%
CSCC[C@@H](C(=O)O)N1Cc2ccccc2C1=O	1%	2	4%	7%	-1%	-17%	6%[57.1 µM]	-9%[57.1 µM]
COc1ccccc1NC(=S)N1CC(C)(C)C1=O	3%	-2	1%	-1%	-7%	15%	5%	13%
COc1cccc(-c2nn(C)c3sc(C(=O)NCc4ccc5c(c4)OCO5)cc23)c1	3%	-3	-4%	-9%	0%	1%	9%	27%
Cc1ccc2nc3c(nc2c1)-c1ccccc1C3=O	5%	1	0%	6%	4%	15%	4%	14%
O=C(CCS(=O)(=O)c1ccccc1)OCC(=O)N1CCN(S(=O)(=O)c2ccc(Cl)cc2)CC1	-20%	1	2%	1%	-6%	-28%	-10%	-9%
C[C@H](NC(=O)c1nc[nH]c1C(=O)N1CCN(c2ccccc2)CC1)C(=O)OC(C)(C)C	2%	0	2%	1%	-3%	23%	0%	-8%
CCN(CC)S(=O)(=O)c1cc(C(=O)n2cccn2)c(Cl)cc1Cl	-3%	0	3%	0%	-4%	23%	-7%	10%
CC1=C(C(=O)Nc2cccnc2)C(c2cccc(O)c2)n2nc(SCc3ccccc3)nc2N1 (stereo not given)	5%	-9	-5%	11%	-3%	-41%	3%[57.1 µM]	15%[57.1 µM]
O=C(O)Cn1c(O)c(C2=c3ccccc3=NC2=O)sc1=O	2%	1	-1%	2%	-5%	-52%	-6%	-14%
CC(C)NC(=O)CC(=O)NN=C1CCCCC1	-17%	-8	-1%	23%	-5%	-14%	5%	20%
Cc1oc2c(F)c(F)c(F)c(F)c2c1S(=O)(=O)Nc1cccc(C(F)(F)F)c1	-1%	4	-3%	-1%	-3%	-1%	-18%	2%
CC1CCCN(C(=O)COC(=O)Cc2c(F)cccc2Cl)C1 (stereo not given)	7%	-2	-3%	9%	7%	-14%	2%	10%
Cn1c(C(=O)N2COCC2(C)C)cc2c(=O)n3ccccc3nc21	3%	-3	2%	3%	-3%	-19%[11.4 µM]	235%[activator][57.1 µM]	-153%
Cc1ccc(CNC(=O)c2c(C)oc3ncnc(N4CCOCC4)c23)cc1	1%	-5	6%	-13%	-1%	10%	-12%	-15%
COC(=O)C1=C(C)Nc2nnnn2C1c1cccnc1 (stereo not given)	-2%	-5	-2%	1%	-5%	-29%	8%[57.1 µM]	16%[57.1 µM]
C=C1CCN(C(CC(C)C)C(=O)N2CCOCC2)S(=O)(=O)c2ccccc21 (stereo not given)	/	/	-1%	/	-3%	15%	-7%	-1%
O=C(Nc1nc2n(n1)C(c1ccccc1)C=C(c1ccccc1)N2)c1ccccc1 (stereo not given)	-1%	-6	-7%	-15%	-3%	-1%	10%	56µM*
COc1ccc(CNC(=O)Nc2cn(CC(C)C)c(=O)c3ccccc23)c(OC)c1	0%	0	-4%	2%	-3%	-19%	-6%[2.29 µM]	-17%
Cc1ccc(S(=O)(=O)Cn2nnnc2C(C(C)C)N2CCc3ccccc3C2)cc1 (stereo not given)	-4%	11	1%	-3%	1%	4%	5%	?
CN(C)C(=O)c1ccc2c3c(cccc13)CC2	-6%	-5	0%	-4%	2%	10%	2%[57.1 µM]	7%[57.1 µM]
CC(=O)Nc1ccc(N=Cc2c(O)ccc3ccccc23)cc1	-1%	11	-1%	15%	-4%	-47%	1%	13%
O=C(O)COCC(=O)Nc1ccc(OCCc2ccccc2)cc1	4%	-7	-1%	3%	5%	38%	2%	27%
C/C(=N\NC(=O)c1ccc(NS(=O)(=O)c2cccs2)cc1)c1ccccn1	-2%	1	-1%	-8%	-3%	20%	-9%	-5%
CCN(CC)CCNc1ccc(Cl)cc1[N+](=O)[O-]	-4%	0	-5%	0%	-3%	-9%	5%[57.1 µM]	26%[57.1 µM]
O=c1c2cc(Cl)cc(Cl)c2nc2n1CCC2	-12%	-4	-2%	-1%	-8%	-9%	-5%	11%[57.1 µM]
CC(C(=O)N1CCOCC1)N1c2cccc3cccc(c23)S1(=O)=O (stereo not given)	1%	9	-1%	4%	-3%	-6%	12%	13%
c1ccc2c(CCN3CCNC[C@H]3Cc3cccc4ccccc34)cccc2c1	-18%	10	-18%	-5%	2%	-7%	2%	-21%
CC(=O)Cc1nsc(NC(=O)c2cc(-c3ccccc3Cl)oc2C)n1	-5%	-11	0%	-5%	0%	1%	-8%	5%
NC(=O)c1ccccc1OCc1cccc2ccccc12	5%	-4	-1%	5%	0%	20%	-1%	7%

# Some of the compounds tested. The share of hits here may be higher or lower than overall.
